Screening results as filed in PubChem.
TRPV1 potentiator: enhances activation of the human vanilloid receptor TRPV1. TRPV1-expressing cells, Fluo-8 calcium influx, capsaicin EC20 potentiation; host cell line not named in the record; control for the full effect not named in the record. potentiation, % at 8.33 µM. 320,000 tested, 0.02% active. AID 540277; active means potentiation above 80%; inconclusive means 30% to 80%; inactive means below 30%; further: 0% is about no effect
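Fluo-8 calcium influx in TRPV1-expressing cells, kinetic read (ex 480/em 520 nm). Compound added and read 3 min for agonist activity, followed by capsaicin at EC20 final and 2 min further read for enhancement.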
PINK1 modulator: changes PINK1 expression | AID 624263 | 410,000 tested, 0.2% active | PINK1 immunofluorescence, high-content cytometry, 24 h | Potency, µM (highest dose often 76.6 µM), inactives show top-dose activation (PINK1 increase), actives largely listed as activators; active = well fitted activation curve with a large enough effect; inconclusive = small, poorly fitted or top-dose-only effect; inactive = flat fitted curve, though single readings scatter; cell line not stated here;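 further: potency means the concentration at half of the fitted maximal effect; % of control where 0% means no effect; nearly all actives have a fitted effect of over 65% in size; a mitochondrial uncoupler was the plate control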
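Readout is PINK1 immunofluorescence, quantified alongside mitochondrial, cell and nuclear markers by laser-scanning microplate cytometry. Cells from a stable line were exposed to compound titrations (5 concentrations) for 24 hours, with CCCP controls.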
TRPML1 agonist: agonists of human TRPML1 channel. Q9GZU1. TRPML1-expressing cells, Ca2+ dye fluorescence, FDSS; host cell line not named in the record; reference of the full effect not given here. activation, % (concentration not given with the values). 410,000 tested, 0.12% active; in the data active = activation above about 50%; inconclusive = about 30% to 50%; inactive = below about 30%; further: 0% is about no effect; the text of the record puts the active cut at 80%
Target sequence (Q9GZU1 whole entry, looked up): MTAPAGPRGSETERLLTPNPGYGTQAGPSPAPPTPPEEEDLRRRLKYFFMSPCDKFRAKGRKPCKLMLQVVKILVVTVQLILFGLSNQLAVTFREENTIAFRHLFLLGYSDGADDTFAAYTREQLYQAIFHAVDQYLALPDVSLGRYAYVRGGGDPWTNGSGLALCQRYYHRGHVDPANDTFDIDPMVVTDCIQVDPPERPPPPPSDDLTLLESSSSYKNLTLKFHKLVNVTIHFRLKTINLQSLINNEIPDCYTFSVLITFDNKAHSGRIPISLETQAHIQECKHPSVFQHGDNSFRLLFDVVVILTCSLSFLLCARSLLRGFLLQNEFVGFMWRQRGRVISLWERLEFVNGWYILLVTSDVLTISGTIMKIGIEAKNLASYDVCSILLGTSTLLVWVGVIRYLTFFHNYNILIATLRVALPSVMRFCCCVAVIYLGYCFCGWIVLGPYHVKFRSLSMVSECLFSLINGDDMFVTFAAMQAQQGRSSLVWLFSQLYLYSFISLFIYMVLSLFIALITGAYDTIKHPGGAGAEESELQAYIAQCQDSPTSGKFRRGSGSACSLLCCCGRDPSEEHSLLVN
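Cells: TRPML1-DL, 1X Tet inducer, ~16 h at 37 degrees C/5% CO2. Dye: ABD Ca8 no-wash + quencher, 45-90 min RT. Read: 10 s baseline, compound add, 110 s agonist phase; 54-4 EC80 (4uM final), 110 s antagonist phase.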
ClpP mod: qHTS Assay for Activators of ClpP; ATP-dependent Clp protease proteolytic subunit (Bacillus subtilis (strain 168)), P80244; purified B. subtilis ClpP, FRET peptide cleavage, 20 min; Potency, µM (top dose mostly 57.5 µM), for inactives: at the top dose activity change, negative = active; 340,000 tested, 1.9% active; AID 651965, 2013; active = well fitted falling curve with a large enough effect; inconclusive = small, poorly fitted or top-dose-only effect; inactive = no such curve, though single readings can be large or run the other way; further: potency means the concentration at half of the fitted maximal effect; the source files actives as falling curves though it sought activators and does not explain the sign; nearly all actives have a fitted effect of over 65% in size; many hits overshoot -100%
Target sequence (P80244 whole entry, looked up): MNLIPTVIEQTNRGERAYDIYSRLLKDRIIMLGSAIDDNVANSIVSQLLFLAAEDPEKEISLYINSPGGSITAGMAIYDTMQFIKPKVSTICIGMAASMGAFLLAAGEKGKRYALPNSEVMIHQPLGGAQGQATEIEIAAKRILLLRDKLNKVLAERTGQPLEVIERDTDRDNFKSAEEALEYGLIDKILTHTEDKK
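Purified B. subtilis ClpP, 10 microg/mL final in Tris/HCl pH8 with KCl, BSA, glycerol and Tween-20, cleaved an Abz/nitrotyrosine-quenched decapeptide. Fluorescence (ex 320, em 430) was read at 0 and 20 min at room temperature. Delta was normalized to 5.8 microM ADEP and DMSO/no-enzyme controls.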
Sfp PPTase inh: blocks B. subtilis Sfp PPTase activity. Q9F4F7. Biochemical Sfp PPTase activity, qHTS. Potency, µM, for inactives: max response, negative = inhibition, usual class: inhibitors. 310,000 tested, 3.5% active. AID 1490; active means well fitted inhibition curve with a large enough effect; inconclusive means small, poorly fitted or top-dose-only effect, or another doubt; inactive means no such curve, though single readings can be large or run the other way;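 further: the enzyme is Sfp with the accession as filed and its product quenches rhodamine fluorescence; potency means the concentration at half of the fitted maximal effect; 0% = enzyme reaction without inhibitor and -100% = no enzyme wells; top concentration of the series not given in the record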
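Step 1, compound plus 15 nM Sfp-PPTase, 15 min, room temperature. Step 2, add rhodamine-CoA (5 uM) and BHQ-2-YbbR (12.5 uM). Step 3, read 525/598 nm fluorescence at 0 and 30 min.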
Menin-MLL FL inh: inhibitors of human menin-MLL interaction, wild-type MLL peptide. AID 1766. FP activity change, % at 61.4 µM. Fluorescence polarization, fluorescein-MLL peptide displacement from menin. 290,000 tested, under 10 active; inconclusive = falling polarisation curve, or a change in total fluorescence; inactive = total fluorescence flat and polarisation flat or rising; no compound was filed as active; the % refers to the polarisation; negative = inhibition;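 further: % of control where 0% means no effect; inhibitors lower the polarisation; unlabelled MLL peptide was the positive control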
TRPML1 blocker: human mucolipin-1 channel inhibition; AID 624415; Q9GZU1; TRPML1-inducible cells, Ca2+ dye fluorescence, FDSS; hits give low values; inhibition of EC80 agonist-evoked calcium signal; 390,000 tested, 0.02% active; activity change, negative = inhibition, % (test concentration not listed); in the data active means activity change below about -50%; inconclusive means about -30% to -50%; inactive means above about -30%;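 further: stimulus is agonist 54-4 at its EC80 concentration; on the % scale 0 is the no-effect control and ±100 the full control effect; compound concentration not given in the record; the text of the record puts the active cut at -80%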
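Tet-induced TRPML1-DL cells loaded with Ca8 no-wash calcium dye were read kinetically on FDSS. Compound addition was followed by EC80 agonist 54-4 (4 uM final); inhibition was read over 110 s.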
Starred values were filed as active, the others as inactive; ? = inconclusive; · = no result given; [ ] = remark or other dose.

SMILES | TRPV1 potentiator | PINK1 modulator | TRPML1 agonist | ClpP mod | Sfp PPTase inh | Menin-MLL FL inh | TRPML1 blocker
Cc1sc2nc(C(C)C)nc(SCC(=O)NCc3ccco3)c2c1C | -9 | · | 3.1 | -1.0% | -30% | 1.1 | 10
Cc1ccccc1CNC(=O)C(=O)NCC(c1ccco1)S(=O)(=O)c1ccc(F)cc1 (configuration not stated) | · | -0.3% | 2.0 | -2.0% | · | · | 3
COc1cc(Br)cc(C(=O)N2CCc3ccccc32)c1OC | · | 0.2% | 1.5 | -0.8% | · | · | 4
CCOC(=O)N1CCN(C(=O)CN(c2ccc(Cl)c(C(F)(F)F)c2)S(C)(=O)=O)CC1 | -1 | -0.1% | -0.1 | -0.2% | 18% | 0.0 | 4
CCOc1ccc(-c2cn(-c3ccc(OC)cc3)c(SCC(=O)Nc3ccccc3Cl)n2)cc1 | · | 0.7% | -1.1 | -6.5% | · | · | -14
Cc1cccn2c(=O)c(/C=C(\C#N)C(N)=O)c(N3CCCCCC3)nc12 | 2 | -1.5% | 1.2 | -9.1% | -3% | -3.7 | -9
O=C(COc1ccccc1)NC(NC(=S)Nc1ccccc1O)C(Cl)(Cl)Cl (configuration not stated) | -3 | -0.2% | -0.3 | 1.4% | 7% | -1.1 | 11
COc1ccc(C(=O)NNC(=O)c2cccc3ccccc23)cc1 | · | 8.3% | 0.5 | · | · | · | -25
CCC(=O)N(c1nnc(SC(C)C(=O)Nc2ccc(N3CCOCC3)cc2)s1)C1CC1 (configuration not stated) | · | 0.6% | -0.5 | -2.1% | · | · | -1
O=C(Cn1nnc(-c2ccc(Cl)cc2)n1)NC1CC2CCC1C2 (configuration not stated) | -10 | 1.5% | -0.8 | 1.8% | 15% | 5.1 | -4
CCOc1cc(N2CCOCC2)c(OCC)cc1NC(=O)CN1C(=O)NC(C)(c2ccc(OC)cc2)C1=O (configuration not stated) | · | -1.0% | -0.2 | -1.1% | · | · | 47
CCOc1ccc(-n2c(C)nc3cc(C(=O)NC4CCCC4)ccc32)cc1 | · | 1.0% | -0.2 | -3.6% | · | · | 5
O=C(Cn1cccc1C(=O)c1ccccc1)NCCc1ccc(Cl)cc1 | 5 | 0.3% | 0.2 | 0.3% | 8% | · | 7
C/C(=N\NC(=O)c1nnn(-c2nonc2N)c1C(C)C)c1cc(C)sc1C | -7 | -0.9% | 2.0 | · | 2% | -1.8 | 11
C=CCSc1ncc(C(=O)OCC)c(N)n1 | 6 | -0.7% | 2.3 | · | 6% | -0.3 | 3

2 entries from above, as labelled records.
COc1ccc(C(=O)NNC(=O)c2cccc3ccccc23)cc1
  TRPV1 potentiator = ·	PINK1 modulator = 8.3%	TRPML1 agonist = 0.5	ClpP mod = ·	Sfp PPTase inh = ·	Menin-MLL FL inh = ·	TRPML1 blocker = -25

CCC(=O)N(c1nnc(SC(C)C(=O)Nc2ccc(N3CCOCC3)cc2)s1)C1CC1 (configuration not stated)
  TRPV1 potentiator = ·	PINK1 modulator = 0.6%	TRPML1 agonist = -0.5	ClpP mod = -2.1%	Sfp PPTase inh = ·	Menin-MLL FL inh = ·	TRPML1 blocker = -1

Additional structures follow:
SMILES | TRPV1 potentiator | PINK1 modulator | TRPML1 agonist | ClpP mod | Sfp PPTase inh | Menin-MLL FL inh | TRPML1 blocker
O=C(COC(=O)COc1ccc(Br)cc1)NCc1ccccc1 | -24 | -0.2% | -0.2 | 0.6% | · | · | 6
CC(OC(=O)CSc1ccccc1)C(=O)NC1CCCCC1C (configuration not stated) | -35 | 0.2% | -0.9 | 0.8% | · | · | 14
CC(C)C(=O)NCc1cc(-c2ccccc2)no1 | -28 | 1.0% | 0.1 | -4.0% | 15% | -1.4 | 7
C=CCN(CC=C)Cc1cc(=O)oc2ccc3ccccc3c12 | · | 2.8% | -0.7 | ? | · | · | ·
CCC(c1nnc(SCC(=O)NC2CCCCC2)n1Cc1ccccc1)N(C)C (configuration not stated) | -3 | -3.1% | 0.6 | · | · | · | 9
COCCNC(=O)C(c1ccc(C)cc1)N(C(=O)CCC(=O)Nc1ccccn1)C1CCCCC1 (configuration not stated) | 4 | -0.8% | 0.2 | · | 17% | · | -14
COc1ccc(S(=O)(=O)N2CCCCCC2)cc1C(=O)NCc1ccc(C)cc1 | -1 | 3.5% | 1.3 | -4.8% | · | · | 73
Cn1ccc2c(-c3ccc(C(N)=O)cc3)cc3c(c21)C1CCC3O1 (configuration not stated) | · | 1.2% | -0.4 | -4.3% | · | · | ·
CCC1(c2ccccc2)NC(=O)N(CC(=O)NCc2ccncc2)C1=O (configuration not stated) | -19 | 0.0% | 0.1 | · | 2% | -0.7 | -10
COc1ccc(/C=C2\N=C(c3ccccc3)N(c3ccc(C(=O)O)cc3)C2=O)cc1OC | -6 | 0.0% | 1.0 | · | 10% | ? | -6
CN(CC(=O)NC1CCCCCC1)S(=O)(=O)c1ccccc1 | -1 | -1.3%[38.3 µM] | 3.9 | -0.3% | -2% | -4.1 | 6
COCCCN1C(=O)C(=O)/C(=C(/O)c2ccc(OC(C)C)cc2)C1c1ccc(O)c(OC)c1 (configuration not stated) | 6 | 5.5% | 0.7 | -1.4% | 15% | 0.3 | 1
CN(C)c1ccc(/C=C/C=C2/SC(=S)N(c3ccccc3)C2=O)cc1 | · | -1.2% | 3.7 | 0.1% | -19% | ? | -12
Cc1cccc(NC(=O)CN2C(=O)NC(C)(c3ccc4ccccc4c3)C2=O)n1 (configuration not stated) | -1 | 1.0% | 1.1 | -2.9% | · | · | -4
CCCN(CCC)C(=O)CSc1nc2ccccc2c(=O)n1Cc1ccco1 | · | 0.1% | 1.2 | -1.5% | · | · | 9
CCOC(=O)c1c(C)[nH]c(C(=O)OC(C)C(=O)Nc2ccccc2OC)c1C (configuration not stated) | ? | 9.6% | 2.0 | 0.2% | -9% | 1.4 | -1
O=C1CC(c2ccccc2)n2nc(N3C(=O)c4ccccc4C3=O)nc2N1 (configuration not stated) | 15 | -0.2% | 0.7 | 0.6% | 5% | 0.3 | 6
C=C(C)COc1ccc(-c2nc(N)nc(C)c2-c2ccc(OC)cc2)c(O)c1 | 14 | 0.3% | 3.9 | 25µM* | -1% | -3.7 | 19
CC(CNCC1CCCO1)COc1cccc2ccccc12 (configuration not stated) | -11 | -2.4% | 0.9 | -8.2% | -16% | -8.2 | 23
Cc1ccc(CNC(=O)CCNS(=O)(=O)c2ccc3c(c2)CCCC(=O)N3)cc1 | · | -1.8% | 0.7 | -28% | · | · | -11
O=C(Nc1ccc(N2CCOCC2)c(Cl)c1)c1ccc(Br)o1 | 11 | 3.1% | -0.5 | -1.1% | -24% | -0.4 | -10
O=C(Nc1ccc(Oc2ccccc2)cc1)C1CC1 | -9 | 2.4% | -0.9 | -0.9% | 14% | -1.1 | -16
C#CCOCCOCCOCCNc1nc(N2CCOCC2)nc(N2CCN(C(=O)[C@H](CO)n3cc([C@@H](N)C(C)C)nn3)CC2)n1 | · | 2.7% | 0.9 | 0.0% | · | · | 0
COc1ccc(-n2c(N)c(C(=O)NCc3ccco3)c3nc4ccccc4nc32)c(OC)c1 | 0 | 10% | -0.5 | 11µM* | ? | 12 | -16
CC1(C)O[C@@H]2C[C@H]3[C@@H]4C[C@H](F)C5=CC(=O)CC[C@]5(C)[C@H]4[C@@H](O)C[C@]3(C)[C@]2(C(=O)CO)O1 | -9 | 5.0% | 0.6 | -1.0% | -11% | 2.4 | 11
CC(=O)c1cccc(NC(=O)COc2ccccc2C(=O)c2cc(C#N)c(=O)n(C3CCCCC3)c2)c1 | 3 | 0.0% | -0.8 | -1.6% | ? | 3.4 | 5
O=C(CO)N/N=C/c1ccc(Cl)cc1 | 28 | -2.0%[38.3 µM] | 0.3 | -0.1% | 5% | 4.5 | -17
CCOC(=O)c1nnn(-c2nonc2N)c1CN(C)Cc1ccccc1 | 3 | 8.4% | 2.0 | -1.1% | 9% | 0.8 | 13
COc1ccccc1C(CNC(=O)C1CC(=O)N(Cc2ccccc2)C1)N1CCCC1 (configuration not stated) | 17 | -1.2% | 0.1 | -3.2% | · | · | 9
CCc1ccc(N2C(=O)Nc3ccccc3C2(O)C(=O)N2CCN(c3ccccn3)CC2)cc1 (configuration not stated) | 3 | 3.3% | -0.2 | · | 14% | 3.8 | 4
COc1ccc2c(c1)C=C(CN1CCN(C3CCCC3)C(CCO)C1)CO2 (configuration not stated) | 2 | 1.4% | -0.6 | · | 21% | -1.4 | 2
COc1cccc(OCC(=O)Nc2cc(Cl)ccc2Oc2ccccc2)c1 | 4 | 0.3% | 2.0 | -0.5% | -22% | -0.5 | 5
CC(C)Cn1c(-c2ccc(Br)cc2)c[nH]c1=S | -3 | -0.9% | 3.1 | · | 8% | -0.1 | 31
CC(C)CC(=O)Nc1cccc(NC(=O)CC(C)C)n1 | -5 | -1.2% | 0.0 | -1.7% | 7% | 1.8 | -4
CC1=CC(C)C2(COC(c3ccc[n+](C)c3)OC2)C(C)C1 (configuration not stated) | 13 | 2.3% | 1.0 | 1.1% | -18% | 2.2 | -26
COc1ccc(C2NC(=O)C(C#N)=C(S)N2c2cccc(C)c2)cc1OC (configuration not stated) | 12 | 0.1% | 0.7 | · | 32µM* | -3.4 | 7
COc1ccc(CCN2C(=O)NC(NC(C)=O)(C(F)(F)F)C2=O)cc1OC (configuration not stated) | -13 | 2.6% | -0.7 | 1.0% | 9% | 8.1 | 24
Cc1c(C(=O)NNC(=S)NCc2ccc(Cl)cc2)oc2ccccc12 | 1 | 3.7% | 0.8 | 28% | 14% | · | 8
CC(=O)c1ccc(S(=O)(=O)NCCCC(=O)NCCc2ccccn2)cc1 | -4 | 0.8% | 0.1 | 1.3% | 2% | 2.1 | 6
COc1cc(C=NCc2ccccc2)ccc1O | · | 4.8% | -0.5 | -0.9% | · | · | 7
CN(Cc1ccccc1)c1ncnc2c1nnn2C | · | 2.6% | 0.3 | -1.6% | · | · | -8
COCCNC(=O)C1(C)CCCN(Cc2ccc(OC)cc2)C1 (configuration not stated) | · | 1.1% | -0.3 | -0.9% | · | · | ·
COc1ccc(C2C(C)C(=O)C(C)C(c3ccc(OC)cc3)N2N=O)cc1 (configuration not stated) | · | 9.7% | 0.3 | -1.5% | · | · | 5
